# Mtb hypoxia rep = reduces hypoxia-regulated biosensor signal in M. tuberculosis. M. tuberculosis hypoxia-regulated fluorescent reporter, fluorescence. fluorescence inhibition, % (concentration not given with the values). hit rate 0.1% among 300,000;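 active = 35 to 45% if threefold the growth effect, above 45% if 1.5-fold the growth effect; inactive = the rest, general growth blockers included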;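 also: wells of about 50 µL received 100 nL stock; 0% = vehicle wells and 100% = reference inhibitor wells; whole bacteria with a GFP reporter of the hypoxia response; strong numbers were not always called active; many hits fall short of the cut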
# Sa ugtP lethal = growth inhibition of S. aureus ugtP deletion strain; S. aureus RN4220 ugtP deletion, OD600 growth, 16 h; some inactives read as strong as hits; growth inhibition, % (no concentration beside the values); hit rate 0.54% among 330,000;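 active = z-score under -3 and OD600 up to 0.15 on both plates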;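 also: plate controls were untreated wells for no effect and antibiotic for full effect; wells of about 80 µL received 100 nL stock; the first replicate is given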
# Sa RN4220 lethal = S. aureus RN4220 growth inhibition; inhibition, % (concentration not given with the values); OD600, 16 h; hit rate 0.33% among 330,000;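 active = z-score of -3 or lower and OD600 up to 0.18 on both plates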;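 also: plate controls were untreated cells for no effect and reference antibiotic for full effect; stock transfer was 100 nL into about 80 µL; one replicate is shown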
# PrP UTR inh = inhibition of PrP 5' UTR reporter expression | cell-based PrP 5' UTR mRNA reporter, plate reader | inhibition, % (no concentration beside the values) | hit rate 0.35% among 340,000 | AID 488862;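 active = every replicate at 50% or more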;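 also: 0 = median of the neutral control wells; tested in H4 reporter cells; numbers are from one replicate; inactives centre near -14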
# Autofluor counter = compound fluorescence in toxin protease inhibitor counterscreen; compound autofluorescence counterscreen, microsphere flow cytometry; stronger effect = higher value; fluorescence intensity (no concentration beside the values); hit rate 3.1% among 360,000; AID 624483;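 active = at least 3 SD above the mean of all compounds, about 16000 in these data; inconclusive = too few beads counted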;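 also: 100 nL of 1 mM stock went into each well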
# BJeLR lethal = BJeLR cell viability loss | AID 1554 | inhibition, % (test concentration not listed) | hit rate 0.17% among 300,000 | BJeLR (HRASV12) viability, CellTiter-Glo ATP luminescence, 48 h; reference of the scale not given here;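 active = replicate mean above 50%; inconclusive = above 50% but judged a plate artefact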;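 also: 50 nL library stock added to about 25 µL; numbers are from one replicate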
# Mtb hypoxia rep growth = recorded beside Mtb hypoxia rep, whose call it bears; growth inhibition, %; measured here: M. tuberculosis growth (absorbance);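 0% = vehicle and 100% = reference antibiotic; read after six days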
# * hit, by the source's call; ? = inconclusive; nt = not tested or not shown.
SMILES,Mtb hypoxia rep,Mtb hypoxia rep growth,Sa ugtP lethal,Sa RN4220 lethal,PrP UTR inh,Autofluor counter,BJeLR lethal
CSCCC(NC(=O)c1cccc(S(=O)(=O)N2CCOCC2)c1)C(=O)Nc1cccc(C)c1 (centres undefined),5,5,11,0.4,-2,2482,-11
CC(C)(C)NCC(O)COc1ccccc1C(C)(C)C (centres undefined),16,8,6,4.8,-27,10503,-6
NCCc1nnc(SCC(=O)Nc2cccc(Cl)c2)o1,11,3,9,3.4,-19,6506,4
CCOc1cc(-c2nccc3cc(OC)c(OC)cc23)cc(OCC)c1OCC,-5,-4,9,3.1,-12,3628,3
CCCCCn1c(CCCNC(=O)CC)nc2ccccc21,13,5,-6,-7.2,-18,6434,-1
Cc1ccccc1-c1nc(CN2CCC(C(=O)NCc3ccco3)CC2)c(C)o1,11,2,-3,0.3,-11,21224*,-4
O=C(CN1C(=O)S/C(=C\c2ccccc2Cl)C1=O)NCCCn1ccnc1,6,-3,2,2.3,-2,4594,-6
CCCn1c(S(=O)(=O)O)nc2ccccc21,16,3,5,3.3,-3,4035,13
COc1cc(Cl)c(C)cc1NC(=O)COC(=O)C1=NN(c2ccccc2)C(=O)CC1,-1,2,1,0.8,-11,2838,nt
COc1cccc(-c2nc(CS(=O)(=O)CC(=O)NCCCN3CC(C)CC(C)C3)c(C)o2)c1 (centres undefined),11,-4,9,2.6,-3,4906,4
COCCn1nnnc1C(CC(C)C)N1CCN(c2ccccc2)CC1 (centres undefined),8,12,3,0.1,-21,7287,-11
CCN1CCCC1CN(Cc1cc2c(C)cc(C)cc2[nH]c1=O)C(=O)NC1CCCCC1 (centres undefined),6,16,-6,3.9,-15,6635,-4
CC(C)c1ccc(OCC(=O)NC(=S)Nc2ccc3c4c(cccc24)CC3)cc1,6,12,15,-7.5,-23,?,-3
Cc1cc(CSc2ccccc2)ccc1NC(=O)c1ccc(Cl)c([N+](=O)[O-])c1,nt,nt,-11,3.8,-12,3022,3
Nc1nnc(-c2cccc([N+](=O)[O-])c2)o1,-4,3,1,2.8,-23,4730,-8
COc1ccc(S(=O)(=O)CC(=O)c2cc3cc(Br)ccc3oc2=O)cc1,0,-6,0,5.6,-3,5142,-1
CN1CCN(c2ccc([N+](=O)[O-])c(-n3nc(-c4ccccc4)c4ccccc4c3=O)c2)CC1,-13,16,-3,1.2,1,4615,4
CC(C)C[C@H](N)C(=O)N1CCC(C(=O)N[C@H](C(=O)NCc2ccc(F)cc2)C(C)C)CC1,nt,nt,-6,8.3,-13,5685,1
COc1ccccc1N1CCN(C(=O)CN(c2ccccc2OC)S(=O)(=O)c2ccccc2)CC1,-3,-6,-2,1.6,-10,9052,nt
O=C(CN1C(=O)/C(=C\c2cccc(Br)c2)Oc2ccccc21)NCC1CCCO1 (centres undefined),-5,-6,-3,4.4,-15,5086,7
O=C(O)C1CC=CCC1C(=O)N1CCCC1 (centres undefined),16,17,-1,3.0,-14,3242,2
Cc1c(OCC(=O)N2CCC[C@@H]2C(=O)O)ccc2c3c(c(=O)oc12)CCC3,nt,nt,-3,5.3,-10,4995,-2
O=C(NN=C1C2CC3CC1CC(Cl)(C3)C2)c1ccccn1,8,11,11,1.5,-21,2194,-4
CC(=O)NC(=C(Cl)Cl)S(=O)(=O)c1ccccc1,3,12,5,-1.4,-40,3297,-13
O=C(COC(=O)c1ccccc1Br)NCc1cccs1,-6,5,1,3.1,-25,8497,nt
CC(C)Cc1nnc(NC(=O)CCC(=O)N2CCN(c3ccc(Cl)cc3)CC2)s1,8,13,7,3.8,-119,5423,3
Cc1nnsc1SCCNC(=O)Nc1ccc(Cl)cc1,7,21,-19,2.7,-27,3556,-1
CSc1ccc(/C=N/N2CCN(Cc3ccc(C)cc3C)CC2)cc1,nt,nt,nt,nt,-7,2399,-1
CC(=O)Nc1ccc(SC[C@H](CC(C)C)N2CCN(CC(C)C)CCC2=O)cc1,nt,nt,nt,nt,-15,2851,-7
N#C/C(=C\c1ccc(F)cc1)c1n[nH]c(Cn2cncn2)n1,9,7,3,-6.3,-10,3068,2
C#CC(C)(O)C1CC(CC(=O)O)C1(C)C (centres undefined),17,8,3,4.7,-10,3473,nt
COc1ccc(C)cc1NC(=O)c1cnc2scc(C)n2c1=O,4,2,10,3.7,7,4119,nt
CC(=O)c1ccccc1OCCCCN1CCCCC1,2,4,17,4.8,-20,4408,4
Cc1ccc(S(=O)(=O)Nc2ccc(-n3c(C)nc4ccccc4c3=O)cc2)cc1,-7,0,0,0.8,-7,?,4
Cn1c(=O)cc(OCC(=O)N2CCN(C3CCCCC3)CC2)c2ccccc21,nt,nt,3,0.5,-11,6657,-19
CC(C)C(=O)NC(C)C(c1cccs1)N1CCOCC1 (centres undefined),4,6,-1,7.9,nt,10887,-3
COC(=O)c1ccccc1NC(=O)/C=C/c1ccco1,14,11,4,3.8,-40,1967,-8
COc1cc(CNCCc2ccc(S(N)(=O)=O)cc2)ccc1OCc1ccc(Cl)cc1,7,8,-5,-3.8,nt,12225,-9
COc1ccc(C(=O)/C=C/N2CCCCC2)cc1OC,6,-1,18,4.3,-38,6867,6
O=C(CSc1ccccc1)N(c1ccc(Br)cc1)c1nccs1,2,-1,25,-1.8,-9,2526,23
CC(NC(=O)C(NS(=O)(=O)c1cccs1)C(C)C)c1ccc(S(N)(=O)=O)cc1 (centres undefined),-2,1,2,-0.8,-10,4760,nt
CC(NC(=O)c1ccc(Cl)cc1)c1nnc(SCc2ccc([N+](=O)[O-])cc2)n1C (centres undefined),-1,2,7,1.2,-47,10840,-9
CS(=O)(=O)c1ccc(C(=O)Nc2cc(S(C)(=O)=O)ccc2Cl)cc1,15,5,6,2.2,-13,2620,5
O=c1[nH]c(N/N=C/c2cc3c(cc2[N+](=O)[O-])OCO3)nc2ccccc12,nt,nt,nt,nt,-10,4195,19
C/C=C/Cn1c(Br)nc2c1c(=O)n(C)c(=O)n2C,4,2,0,3.6,-13,11121,18
COc1cccc(CN(C)CC(=O)Nc2cccc(S(=O)(=O)N(C)c3ccccc3)c2)c1OC,3,6,3,7.2,-14,3630,nt
Cc1cc(N/C=C/C(=O)c2cccs2)ccc1F,5,-2,0,0.0,-92,4483,1
FC(F)(F)c1ccccc1NC(=S)NN1CCOCC1,2,11,3,1.5,-17,9876,0
O=C(Nc1cc(N2CCCCC2)ncn1)c1ccccc1,-8,0,-15,1.0,-20,4715,4
Cc1cc(C)c(NC(=O)COC(=O)Cn2nc(-c3ccccc3)oc2=O)c(C)c1,8,1,3,1.5,-47,3867,nt
COCCCN1CC(=O)N2C(c3ccc(C)cc3)c3[nH]c4ccccc4c3C[C@H]2C1=O (some centres undefined),8,7,0,-1.0,-3,3329,4
CCN(CC)C(=O)CSc1nc2ccccc2c(=O)n1CC,nt,nt,5,2.4,-28,2757,-3
CCNC(=O)c1ccc(-n2nc(C)cc2-c2ccccc2)cc1,3,13,6,5.7,-18,3774,7
CN(C)CC(O)CN(c1ccccc1)c1ccccc1 (centres undefined),5,0,11,2.5,nt,nt,4
Fc1cccc(CN2CCN(Cc3nc(-c4cnccn4)no3)CC2)c1,-1,-3,3,3.0,-9,3952,14
Cc1cc(C)n(C(=O)CCCCCC(=O)n2nc(C)cc2C)n1,nt,nt,-1,4.2,-6,3794,-3
CCOc1ccc(C(=O)NCc2ccccc2OC)cc1,14,13,11,0.9,-23,10148,1
CCOC(=O)c1ccc(NC(=O)CCc2nc(-c3ccc(Cl)cc3)no2)cc1,1,7,-3,-3.5,9,3531,-8
Cc1ccc(-c2c(C(=O)N/N=C/C3CCCCC3)nnn2-c2nonc2N)cc1,nt,nt,nt,nt,-4,5696,0
CCOC(=O)COc1ccc2c(c1)c(C(C)=O)c(C)n2-c1ccccc1,13,3,17,2.7,-16,3402,4

# Going on with the list.
SMILES,Mtb hypoxia rep,Mtb hypoxia rep growth,Sa ugtP lethal,Sa RN4220 lethal,PrP UTR inh,Autofluor counter,BJeLR lethal
O=C(O)C1CC(=O)N(c2ccc(OCc3ccccc3)cc2)C1 (centres undefined),-5,4,4,1.3,-4,21268*,2
O=C1C=C(c2ccc3c(c2)OCO3)CC(c2ccc3c(c2)OCO3)C1 (centres undefined),6,7,9,4.3,nt,nt,nt
COc1cc(C(O)P(=O)(OC2CCCCC2)c2ccc(N(C)C)cc2)cc(OC)c1OC (centres undefined),9,7,12,2.2,-16,16951*,-8
O=c1[nH]c(NCCO)c(N=Cc2ccccc2)c(=O)[nH]1,9,5,3,1.6,-16,3074,-13
O=C(Nc1nnc(S(=O)(=O)N2CCN(c3ccc(F)cc3)CC2)s1)c1ccco1,20,21,-5,8.7,3,5784,1
O=[N+]([O-])c1ccc2nc(CN3CCCCC3)[nH]c2c1,7,4,2,5.9,-15,4435,11
CC1CCN(C(=O)CN2C(=O)NC(c3ccccc3)(c3ccccc3)C2=O)CC1,7,2,1,0.8,-7,8597,nt
Cc1ccc(NC(=O)CCn2c(=O)[nH]c3ccsc3c2=O)cc1,4,3,7,2.2,1,nt,0
COc1cc2ccccc2cc1C(=O)Nc1ccccc1Cl,5,2,32,-13,-85,3983,7
CCOC(=O)c1cccc(N2C(=O)c3ccccc3S2(=O)=O)c1,7,9,3,2.4,-16,16032,0
CCOC(=O)Nc1cc2c(cc1C(C)=O)OCO2,3,2,11,3.8,-17,10175,-6
Cn1c(N)c(C(=O)CSc2n[nH]c(-c3ccccc3)n2)c(=O)n(C)c1=O,-4,-8,4,6.1,-7,3915,nt
O=C(NCc1ccc(Cl)cc1)N1CCN(S(=O)(=O)c2ccccc2)CC1,-4,-6,7,0.5,-13,6073,7
COc1ccc(C(=O)NCCS(=O)(=O)NCc2ccc3c(c2)OCO3)cc1,-6,0,3,0.6,-11,?,1
CCN(CC)S(=O)(=O)c1cc(C(=O)OCC(=O)c2ccc3c(c2)NC(=O)CO3)ccc1F,nt,nt,-1,1.7,-7,2421,0

# Among those listed so far, these contain an aryl thioether with sulfur outside any ring.
SMILES,Mtb hypoxia rep,Mtb hypoxia rep growth,Sa ugtP lethal,Sa RN4220 lethal,PrP UTR inh,Autofluor counter,BJeLR lethal
NCCc1nnc(SCC(=O)Nc2cccc(Cl)c2)o1,11,3,9,3.4,-19,6506,4
Cc1cc(CSc2ccccc2)ccc1NC(=O)c1ccc(Cl)c([N+](=O)[O-])c1,nt,nt,-11,3.8,-12,3022,3
Cc1nnsc1SCCNC(=O)Nc1ccc(Cl)cc1,7,21,-19,2.7,-27,3556,-1
CSc1ccc(/C=N/N2CCN(Cc3ccc(C)cc3C)CC2)cc1,nt,nt,nt,nt,-7,2399,-1
CC(=O)Nc1ccc(SC[C@H](CC(C)C)N2CCN(CC(C)C)CCC2=O)cc1,nt,nt,nt,nt,-15,2851,-7
O=C(CSc1ccccc1)N(c1ccc(Br)cc1)c1nccs1,2,-1,25,-1.8,-9,2526,23
CC(NC(=O)c1ccc(Cl)cc1)c1nnc(SCc2ccc([N+](=O)[O-])cc2)n1C (centres undefined),-1,2,7,1.2,-47,10840,-9
CCN(CC)C(=O)CSc1nc2ccccc2c(=O)n1CC,nt,nt,5,2.4,-28,2757,-3
Cn1c(N)c(C(=O)CSc2n[nH]c(-c3ccccc3)n2)c(=O)n(C)c1=O,-4,-8,4,6.1,-7,3915,nt
